# High-throughput results deposited in PubChem BioAssay by National Center for Advancing Translational Sciences (NCATS).
# NS1 inh: influenza NS1 inhibition | S. cerevisiae slowed by influenza A NS1, growth recovery by OD600 | Potency, µM (highest dose often 46.1 µM), for inactives: at the highest dose activity, positive = more growth | 270,000 compounds, 0.4% hits; note: actives are rising curves; nearly all actives have a fitted effect of over 50% in size
#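 Compounds were scored for reversing the slow growth caused by influenza A NS1 in S. cerevisiae, measured by optical density at 600 nm. Assay medium contained 2% galactose at pH 6.0; NS1-free yeast of the same strain were the positive control.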
# 2A StopGo: FMDV 2A StopGo reporter, luciferase signal | human cells with a luciferase reporter of 2A StopGo recoding; control for the full effect not named in the record | Potency, µM (highest dose often 57.9 µM), inactives show at the highest dose signal change, negative = less light | 410,000 compounds, 1.2% hits; active = well fitted falling curve with a large enough effect; inconclusive = small, poorly fitted or top-dose-only effect; inactive = no such curve, though single readings can be large or run the other way; tested in HEK293T cells; note: % is set by controls: 0 for no effect and ±100 for the full control effect; nearly all actives have a fitted effect of over 45% in size; luciferase light after 4 h
# Cruzain inh noDet: cruzain (T. cruzi) inhibition without detergent. Potency, µM, for the others: max response, negative = inhibition, usual class: inhibitors. purified cruzain, Z-FR-AMC fluorescence, no detergent. P25779. 200,000 compounds, 2.3% hits; active = well fitted curve in the direction sought with a large enough effect; inconclusive = small, poorly fitted or top-dose-only effect, or another doubt; inactive = no such curve, though single readings can be large; an effect the other way counts as inactive or inconclusive;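 note: plate controls were enzyme without inhibitor for no effect and buffer without enzyme for full effect; nearly all actives have a fitted effect of over 40% in size; top concentration of the series not given in the record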
# Target sequence (P25779 123-467 limits assumed): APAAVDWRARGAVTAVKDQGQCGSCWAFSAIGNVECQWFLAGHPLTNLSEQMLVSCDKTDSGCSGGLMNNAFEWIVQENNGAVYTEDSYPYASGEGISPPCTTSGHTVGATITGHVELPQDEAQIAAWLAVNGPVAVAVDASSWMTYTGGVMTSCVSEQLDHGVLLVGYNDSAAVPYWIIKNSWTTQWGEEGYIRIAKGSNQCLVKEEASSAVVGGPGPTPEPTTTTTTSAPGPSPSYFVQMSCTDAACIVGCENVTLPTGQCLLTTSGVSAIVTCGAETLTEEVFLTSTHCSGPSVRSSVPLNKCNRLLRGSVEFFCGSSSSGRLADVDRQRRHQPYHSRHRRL
#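 Detergent-free condition (0.00005% Triton X-100) in acetate buffer pH 5.5 with DTT. 1.5 nM enzyme and compound were pre-mixed 15 min, then 2 uM Z-FR-AMC substrate added; reaction progress from fluorescence change between first and third reads (60 s).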
# RE007 growth inh: less growth of the S. pombe RE007 Vpr strain; S. pombe RE007 Vpr strain, BacTiter-Glo ATP luminescence, 24 h; control for the full effect not named in the record; Potency, µM (top dose mostly 92.2 µM), for inactives: at the highest dose activity change, negative = less growth; 360,000 compounds, 0.21% hits; AID 651644; active = well fitted falling curve with a large enough effect; inconclusive = small, poorly fitted or top-dose-only effect; inactive = no such curve, though single readings can be large or run the other way;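 note: % is set by controls: 0 for no effect and ±100 for the full control effect; nearly all actives have a fitted effect of over 50% in size; the assay follows cell death caused by Vpr and the record does not say whether a fall means rescue or toxicity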
#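 Fission yeast strain RE007, carrying one chromosomally integrated HIV-1 vpr copy, was seeded at OD 0.01 in PMG+AL medium with 23 nL pinned compound. After 24 h at 30 °C and 99% humidity, viability was read by BacTiter-Glo luminescence.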
# Marburg entry inh: inhibitors of Marburg virus binding or cell entry. Marburg virus pseudotyped entry inhibition, cell reporter; control for the full effect not named in the record; about a third of the inactives were read at about 46 µM. 300,000 compounds, 1.8% hits. Potency, µM (series often up to 37.8 µM), for the others: at the highest dose activity change, negative = inhibition, most hits filed as inhibitors. AID 540276; active = well fitted inhibition curve with a large enough effect; inconclusive = small, poorly fitted or top-dose-only effect, or effect the other way; inactive = flat fitted curve, though single readings scatter; tested in HEK293 cells; about a fifth of its hits are not listed in these tables; note: % is set by controls: 0 for no effect and ±100 for the full control effect; luciferase read-out
# Lassa entry inh: Lassa virus entry inhibition; Potency, µM (doses to about 37.9 µM), inactives show at the highest dose activity change, negative = inhibition, most hits filed as inhibitors; 300,000 compounds, 1.2% hits; AID 540256; Lassa virus pseudotype entry inhibition, cell reporter; control for the full effect not named in the record; active means well fitted inhibition curve with a large enough effect; inconclusive means small, poorly fitted or top-dose-only effect, or effect the other way; inactive means flat fitted curve, though single readings scatter; tested in HEK293 cells; note: % is set by controls: 0 for no effect and ±100 for the full control effect; nearly all actives have a fitted effect of over 50% in size; luciferase read-out
# Cruzain inh Det: cruzain (T. cruzi) inhibition with detergent. P25779. purified cruzain, Z-FR-AMC fluorescence, 0.01% Triton. Potency, µM, inactives show max response, negative = inhibition, usual class: inhibitors. 200,000 compounds, 0.43% hits; active = well fitted curve in the direction sought with a large enough effect; inconclusive = small, poorly fitted or top-dose-only effect, or another doubt; inactive = no such curve, though single readings can be large; an effect the other way counts as inactive or inconclusive;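 note: plate controls were neutral wells for no effect and buffer without enzyme for full effect; nearly all actives have a fitted effect of over 40% in size; top concentration of the series not given in the record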
#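 Purified cruzain (1.5 nM final) was preincubated with compounds for 15 min at room temperature in 100 mM sodium acetate pH 5.5, 5 mM DTT, 0.01% Triton X-100. Reaction started with 2 uM Z-FR-AMC; AMC fluorescence change over 60 s gave activity.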
# SARS PLP yeast: blocks SARS-CoV papain-like protease in a yeast assay. S. cerevisiae expressing SARS-CoV PLpro, growth rescue; control for the full effect not named in the record. Potency, µM (highest dose often 32.9 µM), for the others: at the top dose activity, positive = growth rescue. 330,000 compounds, 0.19% hits. AID 485353; note: 0% is about no effect; nearly all actives have a fitted effect of over 55% in size; growth read by luminescence after 48 h
# An asterisk follows results filed as active; ? = inconclusive; nt = no result given; & = joins results of further samples; [ ] = dose if it differs, or a comment. Unless noted, calls come from the whole dose curve; as a rule, active means well fitted rising curve with a large enough effect; inconclusive means small, poorly fitted or top-dose-only effect; inactive means no such curve, though single readings can be large or run the other way. Potency is the fitted concentration of half-maximal effect.
SMILES,NS1 inh,2A StopGo,Cruzain inh noDet,RE007 growth inh,Marburg entry inh,Lassa entry inh,Cruzain inh Det,SARS PLP yeast
Cn1c(N)c(C(=O)COC(=O)/C=C/c2ccc(Cl)cc2)c(=O)n(C)c1=O,nt,?,nt,0%,-23%,11%,nt,-4%
COc1ccc(/C=C/c2nnc(NC(C)=O)s2)cc1,-4%,11%,nt,-10%,?,-26%,nt,-1%
NC(=O)C1=C[C@H](C2CCCCC2)C[C@H](OCc2ccc(CO)cc2)O1,4%,20%,nt,3%,nt,nt,nt,0%
CC(=O)Nc1ccc(OC(=O)c2cccnc2)cc1,-4%,7%,-23%,0%,2%,2%,3.5%,-1%
O=C(c1ccc(Cn2c(=O)[nH]c3ccccc3c2=O)cc1)N1CCN(c2ccc(Cl)cc2)CC1,-30%,-27%,?,21%,?,-18%,1.1%,-13%
Cc1nn(Cc2ccc(C(=O)Nc3ccccc3C(F)(F)F)o2)c(C)c1Br,-60%,-3%,?,6%[3.69 µM],?,?,-13%,-2%
Cc1ccc2cc3cc(C(=O)N4CCN(C(=O)c5ccco5)CC4)sc3nc2c1,-8%,-13%,?,9%,-4%[46.1 µM],3%,-11%,-3%
Cc1ccccc1CSc1ncc(CO)n1Cc1ccc(F)cc1,nt,-7%,21%,nt,nt,-1%[46.1 µM],-4.1%,nt
CC(=O)Nc1ccc(N2CCN(Cc3ccccc3F)CC2)cc1,3%,6%,-10%,7%,26%,?,0.0%,5%
O=C(O)C(=Cc1cc2c(cc1[N+](=O)[O-])OCO2)c1cc2c(cc1Br)OCO2,nt,-3%,nt,7%,14%,0%,nt,nt
N#Cc1ccc(C(=O)OCc2cccc(S(=O)(=O)N3CCOCC3)c2)cc1,nt,-5%,nt,-11%,?,?,nt,-3%
COc1ccc(-c2nc(S(=O)(=O)c3ccccc3)c(N3CCCCC3)o2)cc1,nt,-5%,-6%,nt,-3%[46.1 µM],?,-1.9%,nt
c1ccc(C2CC2)c(OCC2=NCCN2)c1,1%,-7%,3%&-5%,2%[18.4 µM],?,12%,-5.1%&2.2%,nt
COc1ccc2c(c1OC)C(=O)N(c1ccc(O)cc1)C2,1%,?,nt,-18%,-3%[46.1 µM],nt,nt,0%
CCCCCOc1ccc(C(=O)NCCC(=O)NCCCC(=O)OCC)cc1,-3%,-12%,nt,2%,-2%,-4%,nt,0%
CC(C)(C)OC(=O)N[C@@H](COCc1ccccc1)C(=O)N[C@@H](CO)[C@H](O)[C@@H]1C[C@@H]1C(=O)NC1CCCCC1,-13%,-13%,nt,-10%,nt,nt,nt,5%
COCCn1c(SCC(=O)Nc2ccc(Cl)c(S(=O)(=O)N(C)C)c2)nc2ccccc21,-3%,28µM*,15%,-9%,?,1%,3.2%,1%
Cc1cc(C)nc(SCC(=O)N/N=C/c2cccc([N+](=O)[O-])c2)n1,8%,-5%,-8%,7%,4%,23%,0.9%,26%
CCOC(=O)CCn1nc(-c2ccc(Cl)cc2)cc1N,-6%,31%[activator],2%,-30%,28%,-18%,-1.5%,9%
Oc1ccc2[nH]ccc2c1,-3%,3%,-3%,-2%,5%,-10%,1.7%,-2%
Cc1ccc2[nH]c(C(=O)Nc3ccc(F)cc3)cc2c1,-2%,18%,nt,0%,nt,nt,nt,1%
CC(CN(C(N)=O)c1ccccc1O)C(=O)O (stereo not given),-6%,-12%,-16%,-18%,0%,-7%,-6.2%,-9%
Cc1ccc(C(=O)C2=C(O)C(=O)N(Cc3cccnc3)C2c2ccc(Br)cc2)o1 (stereo not given),-7%,-15%,nt,-13%,?,10%,nt,-3%
COc1cccc(CNC(=O)CN2N=C(c3ccc(C)cc3)CCC2=O)c1,nt,-16%,16%,nt,nt,4%[46.1 µM],1.0%,nt
O=C(NCc1cccc(F)c1)c1cccc(NC(=O)c2nsc3ccccc23)c1,nt,26%,?,nt,nt,?,-0.5%,nt
NC(=O)Cn1cnc2c(nnn2-c2ccc(F)cc2)c1=O,3%,47%,nt,3%,9%[46.1 µM],?,nt,-1%
CON(C)C(=O)Nc1ccc(Cl)cc1,-42%,24%,-10%,-12%,?,9%,-5.7%,-9%
CCCCc1nnc(NC(=O)C=C(C)C)s1,4%,26%,6%,-18%,0%,-9%,-0.1%,0%
COc1ccc(NC(=O)CN(C)C(=O)Cc2ccsc2)cc1,6%,?,nt,1%,nt,nt,nt,2%
O=C(/C=C/c1ccco1)Nc1ccc2c(c1)OCCO2,nt,-30%,nt,-14%,?,?,nt,-2%
CC(=O)N(C)c1ccc(NC(=O)c2ccco2)cc1,5%,52%[activator],4%,-19%,-19%[46.1 µM],0%,7.1%,2%
CS(=O)(=O)NCCC1=CCCCC1,3%,3%,23%,4%,-1%,-3%,-4.3%,-1%
COc1ccc(S(=O)(=O)NCC2CCC(C(=O)NCC(OC)OC)CC2)cc1 (stereo not given),nt,5%,nt,10%,?,-11%,nt,1%
O=S(=O)(NCCc1ccccc1)c1ccc(F)cc1Br,nt,110%[activator],nt,-11%,nt,7%[46.1 µM],nt,2%
Cc1cc(C)cc(C(=O)NCC(=O)NCc2ccc(S(N)(=O)=O)cc2)c1,2%,-6%,nt,-9%,?,10%[46.1 µM],nt,0%
COc1ccc(CNS(=O)(=O)c2ccc(-c3ccc(=O)[nH]n3)o2)cc1,-4%,-8%,nt,14%,nt,nt,nt,-12%
CC1C(=O)CCN(C(C)(C)C)C1C (stereo not given),-3%,0%,-9%,8%,1%,3%,-0.3%,-7%
COc1ccccc1CNC(=O)c1cc(S(=O)(=O)N2CCCCCC2)cn1C,nt,-18%,-1%,nt,nt,4%[46.1 µM],-3.9%,nt
CN(C)S(=O)(=O)c1cccc(C(=O)Nc2ccccc2C(=O)NC2CC2)c1,nt,-14%,nt,-16%,24%,?,nt,-17%
CC(=O)Nc1ccc(S(=O)(=O)NCC(=O)OCC(=O)N2CCN(c3ccccc3)CC2)cc1,0%,-7%,2%,15%,0%,?,-3.4%,14%
CCOc1ccccc1OCCCC(=O)NC1=NCCS1,-8%,4%,-5%,6%,13%[46.1 µM],2%,-2.8%,-2%
CC(=O)Nc1nc(-c2cccc3ccccc23)cs1,-33%,19%,nt,-18%,?,-13%[46.1 µM],nt,-6%
COc1ccccc1C1CCN(C(=O)c2cccc([N+](=O)[O-])c2)CC1,-7%,-22%,nt,-18%,-1%[46.1 µM],-24%,nt,0%
CCCC(c1nnnn1CCOC)N1CCN(Cc2ccccc2)CC1 (stereo not given),4%,-3%,-11%,8%,13%,5%,-1.1%,35%
O=C(NCc1ccccc1)c1cc(-c2cccc(O)c2)on1,-6%,63%[activator],nt,-3%,nt,nt,nt,-1%
CCOc1ccc(C2C=C(c3ccccc3)Nc3nnnn32)cc1 (stereo not given),10%,0%,-18%,3%,-43%,0%,-8.5%,0%
Cc1cc(-n2c(C)cc(C(=S)N3CCOCC3)c2C)ccc1Br,-1%,?,?,35%,-38%,0%,-7.9%,5%
Cc1cc(C)n(-c2nc3ccccc3nc2N2CCN(S(=O)(=O)c3cccc(C#N)c3)CC2)n1,14%,-24%,nt,0%,?,-36%,nt,-4%
O=C(NCC1COc2ccccc2O1)C1C2C=CC3(CN(Cc4ccccc4Cl)C(=O)C13)O2 (stereo not given),-6%,-19%,9%,-6%,-24%&-24%[46.1 µM],-2%,1.3%,3%
O=C(COc1ccc(Br)cc1)N1CCN(Cc2c[nH]c3ccccc23)CC1,-4%,-25%,4%,-11%,?,?,4.5%,5%
# Other structures.
SMILES,NS1 inh,2A StopGo,Cruzain inh noDet,RE007 growth inh,Marburg entry inh,Lassa entry inh,Cruzain inh Det,SARS PLP yeast
CCCCn1c(N)c(N(CCOC)C(=O)COC(=O)C(C)(C)Oc2ccc(Cl)cc2)c(=O)[nH]c1=O,nt,-8%,nt,4%,-13%,?,nt,1%
O=C(NC(C(=O)N/N=C/c1ccncc1)c1n[nH]c(=O)c2ccccc12)c1ccccc1 (stereo not given),-5%,4%,nt,5%,13%[46.1 µM],-12%,nt,2%
C/C(=N\NC(=O)c1cccc(S(=O)(=O)N2CCCC2)c1)c1ccc(F)cc1,nt,38%[activator],nt,-1%,-5%,?,nt,0%
C/C(CCN1CCCCc2nc(C)c(C)cc21)=N\O[C@H](C)c1cn([C@H](CO)Cc2ccccc2)nn1,-23%,nt,9%,nt,?,5%,-1.6%,-6%
O=C/C=C/c1coc2ccc3ccccc3c2c1=O,-9%,15%,nt,0%,nt,nt,nt,-1%
Cc1cccc(NC(=O)CSc2c(C)cnc3c2c(=O)n(C)c(=O)n3C)c1C,nt,-18%,-5%,nt,nt,15%[46.1 µM],-0.2%,nt
COc1ccc(N=C2S/C(=C\c3cc(C)n(C)c3C)C(=O)N2CC(C)C)cc1,7.1µM*,-19%,-2%,12%,-25%,-8%,3.8%,-11%
Cc1ccc(-c2nc3c(c(=O)c4ccccc4n3C)c(=O)n2-c2ccc(F)cc2)cc1,-1%,-18%,nt,-7%,18%[46.1 µM],20%[46.1 µM],nt,0%
O=NN(CCc1ccncc1)c1ccc(OCc2ccccc2)cc1,nt,?,nt,3%,?,?,nt,-5%
CC(=O)NC(c1cccs1)c1cc([N+](=O)[O-])c2cccnc2c1O (stereo not given),-18%,?,-3%,0%,?,?,-6.6%,?
Cc1c(C#N)c(NC(=O)c2cccc(Cl)c2)n(Cc2ccccc2)c1C,-5%,?,-12%,11%,?,0%,-2.0%,?
O=C1c2ccccc2-c2c1nc1c([n+]2[O-])CCCC1,-21%,34%[activator],-22%,-6%,26%,13%,3.4%,-6%
C=C1N(C)c2cc([N+](=O)[O-])c(N)cc2C1(C)C,3%,?,nt,-28%,?,-28%,nt,1%
Cc1sc2ncnc(NCC(C)(C)N3CCOCC3)c2c1C,?,0%,17%,1%,?,?,22%,2%
CC(C)CCn1c(N2CCOCC2)nc2c1c(=O)n(CC(N)=O)c(=O)n2C,2%,-14%,0%,4%,?,-3%,1.2%,4%
Cc1cc(C)nc(Sc2nc(Cl)nc(N(c3ccccc3)c3ccccc3)n2)n1,-3%,35µM*,-7%,11%,?,-9%,-0.9%,4%
CCOc1ccc(-c2cc3c(=O)n(Cc4nc(-c5ccc(OC)cc5OC)oc4C)ccn3n2)cc1Cl,nt,16%,-2%,nt,?,?,-3.9%,nt
